Screening data as filed in PubChem.
Sa growth inh = S. aureus growth inhibition; S. aureus RN4220 growth, OD600, 20 h, 42 °C; hits give low values; relative growth, % (test concentration not listed); 170,000 compounds, 0.53% hits; AID 720641;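 active = growth at 42 °C up to 50% and 20 or more points under that at 30 °C, or under 10% at both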;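 also: 300 nL library stock went into each well; scaled to the means of positive and negative controls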
HCMV UL50-53 inh = inhibitors of HCMV UL50-UL53 nuclear egress complex interaction | HTRF UL50-UL53 interaction, normalized percent inhibition | inhibition, % (no concentration beside the values) | 190,000 compounds, 0.15% hits;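 active = both replicates at 50% or more, plus weaker picks with an unusually low signal ratio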;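 also: stock transfer was 100 nL into about 20 µL; 0% = negative control wells and 100% = wells with untagged competitor protein; inactives centre near -12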
GIV Gai3 FP = GIV-Galpha-i interaction inhibition; 210,000 compounds, 0.42% hits; Galpha-i3/FITC-GIV peptide fluorescence polarization, 90 min; hits give low values; scaled: aluminum fluoride 0%, vehicle 100%; percent of control (FP), % (no concentration beside the values); AID 1224905;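 active = replicate mean at 85% of control or lower, very high polarization wells dropped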;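 also: wells of about 15 µL received 100 nL stock; the first replicate is given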
Target sequence (P08753 whole entry, looked up): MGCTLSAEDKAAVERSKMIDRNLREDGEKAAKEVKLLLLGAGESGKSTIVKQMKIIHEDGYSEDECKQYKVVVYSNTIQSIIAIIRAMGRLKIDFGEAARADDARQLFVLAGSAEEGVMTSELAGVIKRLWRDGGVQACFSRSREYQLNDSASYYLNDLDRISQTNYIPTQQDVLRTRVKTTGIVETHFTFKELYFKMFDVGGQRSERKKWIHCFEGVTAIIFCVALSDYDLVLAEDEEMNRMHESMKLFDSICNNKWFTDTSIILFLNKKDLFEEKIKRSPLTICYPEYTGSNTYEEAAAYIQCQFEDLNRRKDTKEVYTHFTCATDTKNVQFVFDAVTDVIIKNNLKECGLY
Sa growth inh second temp = further read-out of Sa growth inh, marked with its call; relative growth, %; measured here: growth at 30 °C;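 optical density after 20 h as mean of two plates; 100% = untreated growth and lower means inhibition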
The depositor's hits bear a star; / = not tested or not shown; & = joins results of further samples.

1) Cc1ccc(Cc2cnc(NC(=O)CCN3C(=O)/C(=C/c4ccc(F)cc4)SC3=S)s2)cc1
2) Cc1ccc(-c2nc3nc(C)cc(NCc4ccc5c(c4)OCO5)n3n2)cc1
3) Cc1ccc(-n2c(C)cc(/C=N/NC3CCS(=O)(=O)C3)c2C)cc1 (stereo not given)
4) FC(F)(F)c1cccc(N2CCN(c3ncnc4c3nc3n4CCCC3)CC2)c1
5) O=C(CCc1nc2ccccc2o1)Nc1ccccc1C(=O)NC1CCCC1
6) Cc1n[nH]c(C)c1CCc1nc2c3ccccc3nc(NCc3ccccc3)n2n1
7) CN1CCN(n2c(-c3ccc(Cl)cc3)csc2=Nc2ccccc2)CC1
8) Cc1cccc(NC(=O)c2ccc(Cn3nc(N4CCN(c5ccccc5)CC4)ccc3=O)o2)c1C
assay / entry	1	2	3	4	5	6	7	8
Sa growth inh	/	/	89.8	129.4	91.2	93.1	73.3	88.7
Sa growth inh second temp	/	/	98.7	90.4	93.7	86.6	95.5	82.7
HCMV UL50-53 inh	-29.6	-19.2	-7.3	/	2.7	/	5.0	/
GIV Gai3 FP	101.2	102.6	/	103.9	/	106.7	/	106.1

9) COc1cccc(-c2cc(C(F)(F)F)n3ncc(C(=O)NC4CCCC4)c3n2)c1
10) O=c1c2ccccc2[nH]c(=S)n1CC1CCCC1
11) CC1(C)S[C@@H]2C(N3C(=O)[C@@H](c4ccccc4)NC3(C)C)C(=O)N2[C@H]1C(=O)O (stereo not given in full)
12) CN(CCNC(=O)C1CCCN1c1nnc(N2CCCC2=O)s1)C1CCCCC1 (stereo not given)
13) CCCNC(=O)CCC(=O)N1Cc2cccc(OC)c2Oc2ncccc21
14) O=C(CC(=O)N=Nc1c(O)[nH]c2ccccc12)N=Nc1c(O)[nH]c2ccccc12
15) CCOC(=O)c1cn(Cc2ccc(C)cc2C)c2nc(C)ccc2c1=O
16) CC(C)N(CCc1ccncc1)C(=O)Nc1ccc(Cl)c(Cl)c1
assay / entry	9	10	11	12	13	14	15	16
Sa growth inh	86.0	103.0	-0.3*	/	82.6	80.0	/	95.9
Sa growth inh second temp	81.3	116.6	-1.0*	/	83.8	46.6	/	77.1
HCMV UL50-53 inh	/	3.4	-15.1	-6.2	-9.3	-59.2	5.4	2.6
GIV Gai3 FP	100.5	107.7	/	103.3	101.6&104.0	103.1	108.3	106.5

17) CCCSc1ccc(N)nc1
18) O=C(NCc1cccnc1)c1cc(-c2ccccc2F)no1
19) CCOC(=O)c1c(C)oc2cc(Br)c(OCc3ccc(Cl)cc3)cc12
20) Cc1ccccc1OCCn1cc(/C=C(\C#N)C(=O)NC2CC2)c2ccccc21
21) COc1cc(-c2nnc(SCCOc3ccc(C)c(Cl)c3)o2)cc(OC)c1OC
22) Cc1ccc(CNC(=O)c2cn(C)c3ccc(S(=O)(=O)N(C)C4CCCCC4)cc3c2=O)cc1
23) Cc1ccccc1-c1noc(CSc2nnc(Cc3ccccc3)n2-c2ccc(F)cc2)n1
24) NC(=O)c1cccc(S(=O)(=O)N2CCCCC2)c1
assay / entry	17	18	19	20	21	22	23	24
Sa growth inh	108.8	99.5	/	112.4	100.7	84.4	97.7	98.7
Sa growth inh second temp	94.3	78.1	/	83.0	94.5	90.9	87.3	69.9
HCMV UL50-53 inh	-11.4	-18.1	-22.3	-20.4	21.3	-31.2	-23.6	-7.4
GIV Gai3 FP	102.6	97.3	101.1	106.4	107.7	102.2	96.6	102.5

25) Cc1ccc(-c2c(C(=O)N(CC(C)C)CC(C)C)oc(=O)c3ccccc23)cc1
26) CCN(Cc1ccccc1)C(=O)Cn1c(=O)cc(C)c2c(C)nn(C)c21
27) CCc1cccc(NC(=O)c2cc3cc4cc(OC)ccc4nc3s2)c1
28) CSc1sc(C(=O)c2ccc(Cl)cc2)c2c1C(=O)CCC2
29) CC(=O)N1c2ccc(S(=O)(=O)N3CCCC3C(=O)NCc3ccc4c(c3)OCO4)cc2CC1C (stereo not given)
30) Cc1nn(-c2ccc(N3CCCC3)nn2)c(C)c1CCC(=O)NCc1ccccc1
31) O=C1Nc2ccccc2/C1=C/c1cccnc1
32) Cc1ccc(C(=O)Cn2c3ccccc3n3ncnc23)cc1
assay / entry	25	26	27	28	29	30	31	32
Sa growth inh	93.8	96.1	99.6	88.3	106.2	99.3	66.6	86.8
Sa growth inh second temp	93.3	101.7	87.9	95.9	103.3	90.1	32.1	94.6
HCMV UL50-53 inh	/	9.7	/	-4.6	5.3&-4.2	/	-48.5	8.1
GIV Gai3 FP	102.0	101.8	101.6	99.6	111.3&103.8	95.9	88.5	/

33) Cc1ccc(NC(=O)CN(C)S(=O)(=O)c2ccc3c(c2)C(=O)NCC(=O)N3)c(C)c1
34) CC1CNc2ccccc2NC1=O (stereo not given)
35) C/C(=N\NC(=O)c1ccc(N)cc1)C(C)(C)C
36) COc1ccc(CN2CCCC2)cc1OC
37) Cc1ccccc1N1C(=O)C(Cc2ccccc2)N=C1N1CCN(C)CC1 (stereo not given)
38) O=S(=O)(c1ccc(Cl)cc1)c1nc(-c2ccc(F)cc2)oc1NC1CC1
39) Cc1ccc(OCC(=O)Nc2ccc3nn(-c4ccc(C)cc4)nc3c2)cc1
40) COc1ccc(C2CC(=O)C3=C(C2)Nc2ccccc2NC3c2cccc(C)c2)cc1 (stereo not given)
assay / entry	33	34	35	36	37	38	39	40
Sa growth inh	/	117.7	121.8	119.6	/	/	100.1	/
Sa growth inh second temp	/	82.0	101.5	108.0	/	/	88.3	/
HCMV UL50-53 inh	-8.5	-23.1	-20.8	-24.0	-35.9	-1.1	-14.5	-8.9
GIV Gai3 FP	104.8	102.1	96.1	99.1	102.0	100.5	105.4	95.7

41) O=C(O/N=C1\CCCCC1Cn1ccnc1)c1ccc(Cl)cc1 (stereo not given)
42) CN1CCN(CC(=O)Nc2ccccc2)CC1
43) COC(=S)Nc1c(Br)cc(C)cc1Br
44) c1ccc(CCc2nn3c(-c4ccccn4)nnc3s2)cc1
45) COC(OC)c1ccc(C#N)c(SCC#N)n1
46) c1ccc(Nc2nc(-c3ccccc3)nc3ccccc23)cc1
47) Cc1ccc(C)c(N2CCN(Cc3csc(C)c3)CC2)c1
48) Cc1oc(-c2ccno2)cc1S(=O)(=O)NC(C)C
assay / entry	41	42	43	44	45	46	47	48
Sa growth inh	94.5	103.1	107.8	/	109.4	49.4	84.6	/
Sa growth inh second temp	35.8	101.4	82.6	/	69.2	46.7	94.2	/
HCMV UL50-53 inh	-20.7	-5.2	-12.8	8.3	-49.6	-10.8	/	-34.9
GIV Gai3 FP	104.6	101.7	106.3	101.6	102.9	/	109.4	108.0

49) CCOc1cc(CNC(=O)C(NS(=O)(=O)c2cccs2)C(C)C)cc(OCC)c1OCC (stereo not given)
50) CCN(C(=O)CSc1ncccc1C(=O)OC(C)C)c1cccc(C)c1
51) CC(=O)N1CCCc2cc(S(=O)(=O)N3CCCC(C(=O)N4CCN(c5cc(C)ccc5C)CC4)C3)ccc21 (stereo not given)
52) Cc1ccc(-c2nnc(SCc3cc(=O)n4oc(C)cc4n3)o2)cc1
53) CC(=O)Nc1ccc(Cl)c(Cl)c1
54) COc1ccc(OC)c(CNC(=O)c2cc(=O)[nH]c3ccc(S(=O)(=O)N4CCCCC4C)cc23)c1 (stereo not given)
55) CCCOC(=O)COc1ccc2c3c(c(=O)oc2c1)CCC3
56) O=C(O)CC1S/C(=N/N=C2\CSC(=O)N2)NC1=O (stereo not given)
assay / entry	49	50	51	52	53	54	55	56
Sa growth inh	86.8	113.2	128.4	/	100.5	96.9	100.4	103.4
Sa growth inh second temp	83.2	93.5	82.6	/	79.9	95.2	94.2	91.1
HCMV UL50-53 inh	/	/	/	-21.2	-20.1	/	-17.2	-17.5
GIV Gai3 FP	101.9	112.4	108.4	102.7	104.0	107.2	103.2	104.0

57) COc1ccc(CCNC(=O)c2ccc3c(c2)CCN3S(=O)(=O)c2ccc(Cl)cc2)cc1
58) COC(=O)CNC(=O)C(Cc1ccccc1)NS(=O)(=O)c1ccc2c(c1)c(=O)n(C)c(=O)n2C (stereo not given)
59) CCc1cccc2c1=NC(=O)C=2c1c(C)[nH]n(-c2ccccc2)c1=O
60) Cc1cc(NC(=O)CSc2nc3nccnc3c(=O)n2Cc2ccccc2)n[nH]1
61) Cc1nc(-c2ccc(Cl)cc2)sc1CCNC(=O)C(=O)Nc1ccc2c(c1)OCCO2
62) Cc1cc(C)n(-c2nc3ccccc3nc2Nc2cc(Cl)ccc2C)n1
63) O=c1c(Cc2cc(Cl)cc(Cl)c2O)c(O)nc2n1CCCS2
64) N#Cc1cc2cc3c(cc2nc1SCC(=O)N1CCN(c2ccc(F)cc2)CC1)OCCO3
assay / entry	57	58	59	60	61	62	63	64
Sa growth inh	94.7	100.3	98.1	96.1	82.1	102.2	66.0	106.6
Sa growth inh second temp	78.0	90.2	71.9	92.1	78.3	99.2	30.1	59.9
HCMV UL50-53 inh	-17.6	1.0	0.9	/	/	8.9	/	-23.3
GIV Gai3 FP	108.1	103.7	103.8	107.8	107.7	105.6	99.7	106.4

65) O=S(=O)(c1ccccc1)c1nc(-c2ccccc2)oc1N1CCCC1
66) O=C(/C=C/c1cccc(Cl)c1)NCc1ccncc1
67) CCc1c(N2CCOCC2)nc2n(c1=O)CCCS2
68) FC(F)(F)c1cccc(N2CCN(Cc3nnc(-c4ccc5c(c4)OCO5)o3)CC2)c1
69) CC(C)(C)C(=O)CSc1nc2[nH]c(=O)[nH]c(=O)c2s1
70) Cc1cc(C)cc(N2C(=O)c3cc4ccsc4n3CC2(C)C(=O)NC2CCCCC2)c1 (stereo not given)
71) COc1ccc(C2=CC(=O)OC3(CCCCC3)O2)cc1
72) O=C(NC1CCC(NC(=O)c2ccccc2F)CC1)c1ccccc1 (stereo not given)
assay / entry	65	66	67	68	69	70	71	72
Sa growth inh	103.7	99.6	/	121.4	90.8	/	98.0	84.7
Sa growth inh second temp	104.9	87.4	/	99.4	95.3	/	75.5	94.4
HCMV UL50-53 inh	-5.8&-13.9	-35.7	-7.6	0.0	/	6.9	/	-4.9
GIV Gai3 FP	102.0&105.4	98.6	105.2	102.5	99.9	105.7	99.7	/

73) N#CCSc1n[nH]c(=O)c2cc(-c3ccco3)nn12
74) CCCCC(=O)C1C(=O)CC(c2ccccc2)CC1=O (stereo not given)
75) CCOc1ccc(-c2c(C)nn3c(C)c(C(=O)NCCc4ccccc4)cnc23)cc1OCC
76) CCc1ccc(C2(C)CC(C)(C)N(C(=O)c3sc4cc([N+](=O)[O-])ccc4c3Cl)c3ccccc32)cc1 (stereo not given)
77) Cc1ccc2nc(COc3cccc(NC(=O)COc4ccccc4F)c3)cc(=O)n2c1
78) COc1cc2nc(N=C(N)N)[nH]c(=O)c2cc1OC
79) CC1CCN(C(=O)CSc2nc3ccccc3c(=O)[nH]2)CC1
80) COc1ccc(S(=O)(=O)N2CCN(CC(=O)Nc3ccc(OC)cc3OC)CC2)cc1
assay / entry	73	74	75	76	77	78	79	80
Sa growth inh	/	117.2	103.4	/	103.1	85.5	98.4	95.8
Sa growth inh second temp	/	101.3	93.1	/	102.2	83.4	87.0	95.5
HCMV UL50-53 inh	-7.0	-5.4	/	-13.3	/	2.1	-10.2	-38.3
GIV Gai3 FP	108.2	104.6	109.3	95.4	102.0	/	99.4	98.3

81) C=CCc1c(C)c(C#N)c2nc3ccccc3n2c1NCCc1ccc(OC)c(OC)c1
82) CCc1ccc(NC(=O)CCc2ccc(C)o2)cc1
83) Cc1cc(N2CCCC2)n2c(nc3ccccc32)c1C#N
84) Cc1ccc(-n2nc(-c3ccc(F)cc3)c3cnc4cc5c(cc4c32)OCO5)cc1C
85) CC(C)N(C(=O)CSc1cccc[n+]1[O-])c1ccccc1
86) COc1ccc(NC(=O)C2CCCCN2N)cc1OCC(C)C (stereo not given)
87) CCCn1nnnc1COC(=O)CSc1cc(C)c2ccccc2n1
88) CC(C)Oc1ccc(CNC(=O)Oc2ccccc2)cc1
89) Cn1c(=O)oc2cc(S(=O)(=O)Nc3ccc(C(=O)O)cc3)ccc21
assay / entry	81	82	83	84	85	86	87	88	89
Sa growth inh	84.6	87.6	112.3	98.9	92.8	83.6	92.4	96.9	103.5
Sa growth inh second temp	76.0	80.1	101.0	95.6	93.4	80.8	95.4	108.6	88.7
HCMV UL50-53 inh	/	-14.7	/	-8.1	-2.9	-14.4	-4.5	-12.4	-4.2
GIV Gai3 FP	110.1	/	106.1	103.9	/	/	/	103.6	107.5

Profiles, quoted from the list. Order of values: Sa growth inh | Sa growth inh second temp | HCMV UL50-53 inh | GIV Gai3 FP
`Cc1ccc(-n2nc(-c3ccc(F)cc3)c3cnc4cc5c(cc4c32)OCO5)cc1C` is entered as 98.9 | 95.6 | -8.1 | 103.9
`CC(C)N(C(=O)CSc1cccc[n+]1[O-])c1ccccc1` is entered as 92.8 | 93.4 | -2.9 | /
`CCCn1nnnc1COC(=O)CSc1cc(C)c2ccccc2n1` is entered as 92.4 | 95.4 | -4.5 | /
`CCc1ccc(NC(=O)CCc2ccc(C)o2)cc1` is entered as 87.6 | 80.1 | -14.7 | /
